Screens: PubChem, several laboratories
RanGTP-Impb inh = disruptors of Ran-importin-beta complex formation – biochemical, FRET, CFP-Ran, YFP-importin-beta, homogeneous, primary screen. cell-free CFP-Ran/YFP-importin-beta FRET ratio. inhibition, % (test concentration not listed). 300,000 tested, 1.1% active;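 active = most replicates above 15%; inconclusive = exactly half above 15%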;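 also: 0% = DMSO wells and 100% = Ran loaded with GDP instead of GTP; wells of about 40 µL received 100 nL stock; the first replicate is given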
Calb FLC = affects C. albicans growth with fluconazole; growth inhibition, % (no concentration beside the values); 300,000 tested, 0.57% active; C. albicans CaCi-2 (fluconazole-resistant clinical isolate) + fluconazole, Alamar Blue growth, 48 h; AID 1979;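 active = most replicates above 75%; inconclusive = exactly half above 75%; inactive = most below 75%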;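 also: all wells also contain fluconazole at 8 µg/ml as a sub-toxic cotreatment; 0% = median of DMSO wells and 100% = median of geldanamycin control wells; wells of about 8 µL received 7.5 nL stock; the first replicate is given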
B2AR ag = activates human beta-2 adrenergic receptor causing internalization | P07550 | Am2.2-beta2AR cells, FAP receptor internalization, flow cytometry; reference of the scale not given here | response, % (test concentration not listed) | 340,000 tested, 0.43% active;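 active = response above a set limit, near 3 SD of response in nonfluorescent compounds, cut at about 42% in these data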;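 also: stock transfer was 100 nL into about 11 µL; a reference agonist was the positive control; negative values mostly stem from fluorescent compounds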
HNF4A DNA FP = change in binding of human HNF4 alpha to DNA; P41235; HNF4a-FITC DNA binding, fluorescence polarization, 1 h; activity change, % at 10 µM; AID 1224865; 360,000 tested, 0.3% active; in the data active = activity change above about 30%, passing the limit was not always enough;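 also: controls were the assay level and a saturating level of protein; the project sought stronger binding though the title names inhibitors; some compounds called inactive have numbers as strong as hits; positive values seem to mean higher polarization but the record does not say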
Vif A3G = HIV-1 Vif–A3G interaction blockers – biochemical, TR-FRET, GST-Vif 1-94, biotin-A3G peptide, dose response retest, primary screen (AID 1117319); TR-FRET GST-Vif / biotin-A3G peptide binding; higher % means a stronger effect; test concentration not given here; strong numbers were not always called active; inhibition, %, or IC50 in µM where a hit was titrated; 260,000 tested, 0.57% active;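 active = above the screen mean plus three standard deviations and confirmed in dose response; inconclusive = results disagree or hit not tested in dose response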;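 also: Vif residues 1-94 fused to GST binding biotinylated APOBEC3G peptide 110-148; 0% = full assay without inhibitor and 100% = GST in place of GST-Vif; retest series ran down from 100 µM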
LANA-H2B inh = blocks KSHV LANA binding to histone H2A/H2B; Q9QR71; cell-free LANA-H2A/H2B peptide, fluorescence polarization; inhibition, % (concentration not given with the values); 320,000 tested, 0.6% active; AID 2629; in the data active = inhibition mostly above about 10%, no sharp cut-off; inactive = mostly below about 6.7%;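 also: stock transfer was 7.5 nL into about 10 µL; 0% = median of vehicle wells and 100% = median of positive control wells; one replicate is shown; the record names a cut of 25% in any replicate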
Target sequence (Q9QR71 whole entry, looked up): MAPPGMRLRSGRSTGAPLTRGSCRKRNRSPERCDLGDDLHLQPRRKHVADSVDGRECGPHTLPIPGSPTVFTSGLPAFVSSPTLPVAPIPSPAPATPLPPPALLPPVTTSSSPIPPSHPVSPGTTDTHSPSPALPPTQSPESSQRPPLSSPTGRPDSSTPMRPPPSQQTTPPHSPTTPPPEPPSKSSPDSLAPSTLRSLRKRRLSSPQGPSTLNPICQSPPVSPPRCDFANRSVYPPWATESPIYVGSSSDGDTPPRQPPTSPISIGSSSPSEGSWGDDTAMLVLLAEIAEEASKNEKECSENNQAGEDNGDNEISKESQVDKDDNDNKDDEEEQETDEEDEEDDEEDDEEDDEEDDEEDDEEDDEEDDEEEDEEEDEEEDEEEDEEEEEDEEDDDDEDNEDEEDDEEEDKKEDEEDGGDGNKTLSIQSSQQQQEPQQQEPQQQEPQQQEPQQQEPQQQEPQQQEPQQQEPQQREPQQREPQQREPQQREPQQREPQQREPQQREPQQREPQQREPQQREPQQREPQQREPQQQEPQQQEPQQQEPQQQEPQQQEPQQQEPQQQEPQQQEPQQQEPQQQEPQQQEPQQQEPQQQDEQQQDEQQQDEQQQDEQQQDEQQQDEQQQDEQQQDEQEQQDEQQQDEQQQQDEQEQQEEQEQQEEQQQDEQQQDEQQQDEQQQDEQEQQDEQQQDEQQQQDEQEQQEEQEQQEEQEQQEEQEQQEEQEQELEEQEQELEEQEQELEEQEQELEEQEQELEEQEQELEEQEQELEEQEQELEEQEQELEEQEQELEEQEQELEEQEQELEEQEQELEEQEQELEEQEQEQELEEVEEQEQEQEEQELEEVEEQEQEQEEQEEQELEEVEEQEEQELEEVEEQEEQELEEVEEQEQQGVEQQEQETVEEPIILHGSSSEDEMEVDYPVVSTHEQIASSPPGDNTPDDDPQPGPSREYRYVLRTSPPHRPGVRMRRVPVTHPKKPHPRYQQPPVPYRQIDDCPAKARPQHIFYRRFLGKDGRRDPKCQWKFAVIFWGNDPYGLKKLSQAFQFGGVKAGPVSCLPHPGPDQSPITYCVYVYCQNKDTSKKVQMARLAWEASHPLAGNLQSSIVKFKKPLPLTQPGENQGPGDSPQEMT
ALR inh = blocks human ALR sulfhydryl oxidase activity | 290,000 tested, 3.8% active | P55789 | inhibition, % (test concentration not listed) | purified ALR, DTT oxidation, H2O2 HRP-luminol luminescence;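 active = mean and each replicate at 75% or more; inconclusive = only one of the two met; inactive = neither met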;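 also: stock transfer was 7.5 nL into about 7.5 µL; 0% = neutral wells and 100% = wells with inactivated enzyme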
An asterisk follows results filed as active.

The opening 3 entries as a preview:
`CC1(C(=O)OCC(=O)NNC(=O)COc2ccc(Cl)cc2)CC1(Cl)Cl` (stereo not given) gave RanGTP-Impb inh -3.6, Calb FLC 7, B2AR ag -5, HNF4A DNA FP -1.9, Vif A3G 6%, LANA-H2B inh 5.7 and ALR inh -1.
Screening O=c1cc(-c2cccc3ccccc23)[nH][nH]1 returned RanGTP-Impb inh -4.6, Calb FLC 26, B2AR ag 8, HNF4A DNA FP 2.8, Vif A3G 27%, LANA-H2B inh -2.4 and ALR inh 88*.
`CC(NC(=O)C1CCN(S(=O)(=O)N2CCCCCC2)CC1)c1ccccc1` (stereo not given) gave RanGTP-Impb inh -1.4, Calb FLC 6, B2AR ag 6, HNF4A DNA FP -1.1, Vif A3G -2%, LANA-H2B inh 2.8 and ALR inh -5.

Main list, from the first entry:
`CC1(C(=O)OCC(=O)NNC(=O)COc2ccc(Cl)cc2)CC1(Cl)Cl` (stereo not given) gave RanGTP-Impb inh -3.6, Calb FLC 7, B2AR ag -5, HNF4A DNA FP -1.9, Vif A3G 6%, LANA-H2B inh 5.7 and ALR inh -1.
Screening O=c1cc(-c2cccc3ccccc23)[nH][nH]1 returned RanGTP-Impb inh -4.6, Calb FLC 26, B2AR ag 8, HNF4A DNA FP 2.8, Vif A3G 27%, LANA-H2B inh -2.4 and ALR inh 88*.
`CC(NC(=O)C1CCN(S(=O)(=O)N2CCCCCC2)CC1)c1ccccc1` (stereo not given) gave RanGTP-Impb inh -1.4, Calb FLC 6, B2AR ag 6, HNF4A DNA FP -1.1, Vif A3G -2%, LANA-H2B inh 2.8 and ALR inh -5.
CCC(C)Sc1cccc(-c2nc3ccccn3c2NCc2ccccc2)c1 (stereo not given) was read as B2AR ag 29, HNF4A DNA FP 9.0, LANA-H2B inh 4.3 and ALR inh 63.
O=C1SC(SCc2ccccc2Cl)=N/C1=C\c1ccc(C(=O)O)cc1 was read as RanGTP-Impb inh -2.3, Calb FLC -25, B2AR ag 3, HNF4A DNA FP -2.7, Vif A3G -5%, LANA-H2B inh 2.9 and ALR inh 101*.
For COC(=O)c1ccc(NC(=O)c2ccc(N(C)S(C)(=O)=O)cc2)cc1 the results were RanGTP-Impb inh -0.5, Calb FLC -14, B2AR ag 11, HNF4A DNA FP -2.3, Vif A3G 3%, LANA-H2B inh -0.3 and ALR inh -3.
`COCCCN1C(=O)C(=O)/C(=C(/O)c2ccccc2)C1c1ccc2c(c1)OCO2` (stereo not given) gave RanGTP-Impb inh -1.3, Calb FLC -22, B2AR ag -6, HNF4A DNA FP -1.4, Vif A3G 8%, LANA-H2B inh 6.8 and ALR inh -7.
For Oc1c(C=NCc2ccccc2)sc2ccccc12 the results were RanGTP-Impb inh inconclusive, Calb FLC -1, B2AR ag -5, HNF4A DNA FP 5.0, Vif A3G -7%, LANA-H2B inh -1.8 and ALR inh 48.
`Cc1ccc(NC(=S)NC(=O)C2CC2)cc1Cl` gave Calb FLC 112*, B2AR ag -6, HNF4A DNA FP -2.6, Vif A3G -9%, LANA-H2B inh 2.5 and ALR inh 1.
For COc1ccc2c(c1)[C@@H]1[C@H](CO2)[C@H](c2ccccc2)[C@]2(C)C(=O)NCC(=O)N12 the results were B2AR ag -2, HNF4A DNA FP 1.6, LANA-H2B inh 1.3 and ALR inh 4.
Screening Cc1ccn2c(C=O)c(-c3ccc(F)cc3)c(C=O)c2c1 returned RanGTP-Impb inh -2.1, Calb FLC 20, B2AR ag 0, HNF4A DNA FP 1.5, Vif A3G 7% and LANA-H2B inh 4.6.
COCCNC(=O)CN(c1ccc(C)cc1)S(=O)(=O)c1ccccc1 was read as RanGTP-Impb inh 4.4, Calb FLC 6, B2AR ag 2, HNF4A DNA FP -0.6, Vif A3G inconclusive, LANA-H2B inh -1.1 and ALR inh -3.
Cc1ccc(C(=O)N2CCN(c3ncccn3)CC2)cc1S(=O)(=O)N1CCCCC1 was read as RanGTP-Impb inh -4.8, Calb FLC 7, B2AR ag 13, HNF4A DNA FP -1.7, Vif A3G 13%, LANA-H2B inh 0.1 and ALR inh -14.
CCN(Cc1ccccc1)C(=O)CN1C(=O)c2ccccc2C1=O was read as RanGTP-Impb inh -0.3, B2AR ag 3, HNF4A DNA FP -6.1, Vif A3G 6%, LANA-H2B inh -1.4 and ALR inh 21.
`CC(C)(C)CN1CCNC(=O)C1CC(=O)N1CCOc2ccccc2C1` (stereo not given) gave RanGTP-Impb inh -0.1, Calb FLC -10, B2AR ag -3, HNF4A DNA FP -2.4, Vif A3G -2%, LANA-H2B inh -7.7 and ALR inh -63.
Screening CCC1CCc2[nH]nc(C(=O)O)c2C1 (stereo not given) returned RanGTP-Impb inh 5.1, Calb FLC -15, B2AR ag 2, HNF4A DNA FP -1.5, Vif A3G 26%, LANA-H2B inh 2.4 and ALR inh 8.
For O=C(CSc1nnnn1-c1cccc(F)c1)NC1CCCCC1 the results were B2AR ag 0, HNF4A DNA FP -1.4, Vif A3G -7%, LANA-H2B inh 0.2 and ALR inh 2.
`Cc1nn(C)cc1CNC(=O)C1CCC(=O)N(CC2CCCCC2)C1` (stereo not given) gave RanGTP-Impb inh -6.5, Calb FLC 19, B2AR ag 5, HNF4A DNA FP 0.7, LANA-H2B inh 1.9 and ALR inh 7.
Screening CCOc1ccc(NC(=O)CC2C(=O)N(C)C(=S)N2Cc2ccc3c(c2)OCO3)cc1 (stereo not given) returned RanGTP-Impb inh -0.3, B2AR ag -7, HNF4A DNA FP -4.1, LANA-H2B inh -2.1 and ALR inh -3.
`Cc1cc(C)c(S(=O)(=O)NCC2CCC(C(=O)NCc3ccc4c(c3)OCO4)CC2)c(C)c1` (stereo not given) gave RanGTP-Impb inh 1.9, Calb FLC -64, B2AR ag -6, HNF4A DNA FP 1.1, Vif A3G -5%, LANA-H2B inh 10 and ALR inh -8.
`COc1cc2c(c3oc(=O)cc(CC(=O)O)c13)CCC(C)(C)O2` gave RanGTP-Impb inh 4.7, Calb FLC 19, B2AR ag 9, HNF4A DNA FP 2.3, Vif A3G -4%, LANA-H2B inh 5.5 and ALR inh -7.
Screening COc1ccc(Nc2nnc(SCc3cn4c(C)cccc4n3)s2)cc1 returned RanGTP-Impb inh -0.6, Calb FLC -1, B2AR ag -27, HNF4A DNA FP 0.8, Vif A3G 28%, LANA-H2B inh 0.6 and ALR inh 32.
For O=c1cc(COc2ccc(Cl)c(Cl)c2)nc2sccn12 the results were RanGTP-Impb inh -1.5, Calb FLC -11, B2AR ag -8, HNF4A DNA FP -3.8, Vif A3G -51%, LANA-H2B inh -1.4 and ALR inh -2.
`Cc1ccc(-c2c(CC(=O)O)c(C)nc3sc4c(c23)CCCC4)cc1` gave RanGTP-Impb inh -1.3, Calb FLC 3, B2AR ag 11, HNF4A DNA FP 3.3, Vif A3G 5%, LANA-H2B inh 5.2 and ALR inh -2.
CCc1ccc(NC(=O)C2CC(=O)N(C(C)C)C2)cc1 (stereo not given) was read as RanGTP-Impb inh 1.2, Calb FLC -2, B2AR ag -3, HNF4A DNA FP 3.3, Vif A3G 23%, LANA-H2B inh 0.1 and ALR inh -5.
CC[C@]12c3[nH]c4ccc(OC)cc4c3CCN1C(=O)C(CC(=O)NCC13CC4CC(CC(C4)C1)C3)C[C@@H]2C(=O)N1CCN(C(=O)c2ccco2)CC1 (stereo not given in full) was read as B2AR ag 4, HNF4A DNA FP 1.5 and Vif A3G -1%.
`COc1cc([N+](=O)[O-])ccc1NC(=O)CCS(=O)(=O)c1ccc2c(c1)n(C)c(=O)c(=O)n2C` gave RanGTP-Impb inh inconclusive, Calb FLC 1, B2AR ag 6, HNF4A DNA FP 7.7, LANA-H2B inh 1.3 and ALR inh -10.
Screening CCOc1cc(C(=O)Nc2c3c(nn2C(C)(C)C)CS(=O)C3)cc(OCC)c1OCC (stereo not given) returned RanGTP-Impb inh 4.8, Calb FLC -1, B2AR ag -3, HNF4A DNA FP -0.1, Vif A3G 71%, LANA-H2B inh -2.9 and ALR inh 2.
Screening CC(=O)c1ccc(S(=O)(=O)NCCc2csc(-c3cccnc3)n2)cc1 returned RanGTP-Impb inh 3.1, Calb FLC 1, B2AR ag -1, HNF4A DNA FP 0.2, Vif A3G 3%, LANA-H2B inh -7.4 and ALR inh -5.
`CCN(CC(=O)Nc1ccc(NC(C)=O)cc1)C(=O)c1cccc(S(=O)(=O)N2CCCC2)c1` gave RanGTP-Impb inh 1.1, Calb FLC 13, B2AR ag -6, HNF4A DNA FP 4.5, Vif A3G 0%, LANA-H2B inh 2.2 and ALR inh 1.
For Cc1cc(NC(=O)CCC(=O)N(CC(=O)NC2CCCC2)c2ccccc2)no1 the results were RanGTP-Impb inh -5.2, Calb FLC -6, B2AR ag -3, HNF4A DNA FP -4.2, Vif A3G inconclusive, LANA-H2B inh 22* and ALR inh -4.
`CC1(C)CN=C(N(Cc2ccccc2)C(=O)Nc2ccccc2)S1` gave RanGTP-Impb inh 5.3, Calb FLC -8, B2AR ag 2, HNF4A DNA FP 0.1, Vif A3G -3% and LANA-H2B inh 0.7.
Screening Cc1ccc(SCCC(=O)Nc2c(C)n(C)n(-c3ccccc3)c2=O)cc1 returned RanGTP-Impb inh -1.4, Calb FLC 0, B2AR ag -8, HNF4A DNA FP -2.7, Vif A3G -3%, LANA-H2B inh 0.6 and ALR inh -11.
`COc1ccc(/C=N/n2cc(-c3ccccc3)nc2N)cc1` gave RanGTP-Impb inh 4.9, Calb FLC -3, B2AR ag -3, HNF4A DNA FP -2.1, Vif A3G 6%, LANA-H2B inh 3.2 and ALR inh -1.
`Cc1ccccc1OCC(=O)NCC(c1ccco1)N1CCCCC1` (stereo not given) gave RanGTP-Impb inh 12, Calb FLC -4, B2AR ag 0, HNF4A DNA FP 2.0, Vif A3G 1%, LANA-H2B inh -1.9 and ALR inh 6.
For COc1cc(/C=N/Nc2nc3ccccc3s2)cc([N+](=O)[O-])c1O the results were RanGTP-Impb inh -2.3, Calb FLC -2, B2AR ag 17, HNF4A DNA FP 0.8, Vif A3G 26%, LANA-H2B inh 0.2 and ALR inh 20.
COc1ccc2[nH]cc(C(O)CN3CCN(c4ccccc4F)CC3)c2c1 (stereo not given) was read as RanGTP-Impb inh 1.1, Calb FLC 0, B2AR ag -6, HNF4A DNA FP 5.3, LANA-H2B inh -1.3 and ALR inh -3.
Screening Cc1ccc(NC(=O)C(=O)NCCN2CCN(S(C)(=O)=O)CC2)cc1 returned RanGTP-Impb inh -1.9, Calb FLC 15, B2AR ag -1, HNF4A DNA FP -3.2, Vif A3G 8%, LANA-H2B inh 3.4 and ALR inh -4.
`N#CCC(=O)N/N=C/c1ccc(OCc2ccccc2)cc1` gave RanGTP-Impb inh 6.1, Calb FLC -12, B2AR ag -1, HNF4A DNA FP 0.4, Vif A3G -5%, LANA-H2B inh -2.1 and ALR inh -2.
`CCN(C(=O)C1CCCN1S(=O)(=O)c1ccc2c(c1)n(C)c(=O)c(=O)n2C)c1ccccc1` (stereo not given) gave RanGTP-Impb inh -3.5, Calb FLC -5, B2AR ag -13, HNF4A DNA FP 2.9, Vif A3G -3%, LANA-H2B inh 10 and ALR inh -4.
Screening Cc1ccc(-c2onc3ccc(C=O)cc23)cc1 returned RanGTP-Impb inh 23*, Calb FLC 7, B2AR ag 8, HNF4A DNA FP -2.3, Vif A3G 29%, LANA-H2B inh 12 and ALR inh inconclusive.
Cc1ccc(N=Nc2c(C)[nH]n(C(N)=S)c2=O)cc1C was read as RanGTP-Impb inh -6.9, Calb FLC -10, B2AR ag -9, HNF4A DNA FP 6.2, Vif A3G 10%, LANA-H2B inh 0.7 and ALR inh -12.
COc1ccc(NC(=O)Cn2cccc2)c(OC)c1 was read as RanGTP-Impb inh -1.4, Calb FLC 5, B2AR ag 10, HNF4A DNA FP 1.2 and Vif A3G 0%.
